# High-throughput results from PubChem.
# BasE inh – blocks the Acinetobacter baumannii siderophore enzyme BasE | purified BasE, fluorescence polarization binding displacement | inhibition, % (concentration not given with the values) | actives 0.1% (n = 84,000);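 active means both replicates above 25% with normal brightness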;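 further: 0% = negative plate control signal and 100% = positive plate control signal; stock transfer was 100 nL into about 30 µL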
# KSHV LANA nucl – inhibitors of KSHV LANA binding to nucleosomes; FITC-LANA1-23 / chicken nucleosome fluorescence polarization; stronger effect = lower value; z-score (concentration not given with the values); actives 0.3% (n = 51,000); AID 720717;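 active means both repeat wells score below -2 in polarization z-score versus plate sample wells, excluding overly bright wells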;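 further: 100 nL library stock added to about 30 µL; numbers are from one replicate; some results filed as inactive read as strong as hits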
#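 Assay system: purified chicken nucleosomes with FITC-labelled LANA N-terminal peptide (1-23) / Probe or stimulus: 50 nM FITC-LANA1-23 probe / Compound dosing: pin-transferred compound, 100 nL / Times: compound with peptide–nucleosome mix 10–45 min at room temperature / Technique: fluorescence polarization, 480 nm excitation, 535 nm parallel and perpendicular emission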
# The depositor's hits bear a star; · = not tested or not shown; & = joins results of further samples.
SMILES,BasE inh,KSHV LANA nucl
O=c1[nH]c(CN2CC=C(c3ccccc3)CC2)nc2ccccc12,1.5,·
CC(C)(C)NP(C)(=O)C(C)(C)C (stereo not drawn),1.6,0.241
NCC(O)c1ccc(O)cc1 (stereo not drawn),-1.1&-2.3,0.002&-0.607
CCc1nc2ccccc2c(=O)n1-c1cccc(OC)c1,0.2,-0.857
N[C@@H](Cc1ccc(N(CCCl)CCCl)cc1)C(=O)O,·,0.513&-0.18
O=C(O)CSC(=S)N1CC2CC(C1)c1cccc(=O)n1C2 (stereo not drawn),-1.6,0.73
CC1=CC(=C2C(=O)NC(=O)NC2=O)C=C(C(F)(F)F)N1Cc1ccco1,2.2,-0.485
CN1CCN(C2CC3(C)C(CCC4C3CCC3(C)C(O)C(N5CCN(C)CC5)CC43)CC2O)CC1 (stereo not drawn),-1.3,-0.344
CN1CCC2=C(C1)C(=O)NC1(CCCCC1)N2,-0.2,-0.573
COc1cc(C2NC(=O)NC(c3ccc(O)c(OC)c3)C23C(=O)NC(=O)NC3=O)ccc1O (stereo not drawn),1.8,-0.242
COC(=O)N1CC2CC(C1)c1cccc(=O)n1C2 (stereo not drawn),-1.9,1.79
CCN(CC)c1ccc2c3c(c(=O)oc2c1)C(c1cc2c(C)cc(C)cc2[nH]c1=O)C(C#N)=C(N)O3 (stereo not drawn),7.0,1.99
COc1ccc(C(=O)N2CCC3(CC2)OCCO3)cc1,1.5,-0.801
CCOc1cc(/C=C2\C(O)C3CCN2CC3)cc(Cl)c1OCC (stereo not drawn),0.0,-1.77
Nc1c(C(=O)NC2CC2)c2nc3ccccc3nc2n1Cc1ccccc1,-3.1,·
CN1C[C@H](CNC(=O)OCc2ccccc2)C[C@@H]2c3cccc4c3c(cn4C)C[C@H]21,-2.5,0.481
Nc1ccccc1C(=O)OC1CSC1,0.8,0.27
NCCc1nc2ccccc2s1,1.1,·
CN(C(=O)COC(=O)c1cn(C)c2ccccc12)C1CCCCC1,-0.3,·
COc1cccc([C@@]2(O)CCCC[C@@H]2CN(C)C)c1,·,-0.268&1.58
COc1ccccc1C(C)NC(C)C(=O)c1c(N)n(C)c(=O)n(C)c1=O (stereo not drawn),-5.4,·
Cc1c2ccncc2c(C)c2c1[nH]c1ccccc12,0.5,1.46
O=C1C=C2C=CC3CC2(O1)C1CCCCN31 (stereo not drawn),4.5,0.224
O=C(NC1CCCCC1)Oc1cc2oc(=O)sc2cc1Cl,0.7,·
CCN(CC)c1nc2c(C)cccn2c(=O)c1C=C1C(=O)NC(=O)NC1=O,2.1,·

# Compounds shown so far with an aryl methoxy group (five):
SMILES,BasE inh,KSHV LANA nucl
CCc1nc2ccccc2c(=O)n1-c1cccc(OC)c1,0.2,-0.857
COc1cc(C2NC(=O)NC(c3ccc(O)c(OC)c3)C23C(=O)NC(=O)NC3=O)ccc1O (stereo not drawn),1.8,-0.242
COc1ccc(C(=O)N2CCC3(CC2)OCCO3)cc1,1.5,-0.801
COc1cccc([C@@]2(O)CCCC[C@@H]2CN(C)C)c1,·,-0.268&1.58
COc1ccccc1C(C)NC(C)C(=O)c1c(N)n(C)c(=O)n(C)c1=O (stereo not drawn),-5.4,·

# Later entries:
SMILES,BasE inh,KSHV LANA nucl
COc1ccc(C(=O)c2nc3ccccc3n2C(C)C)cc1OC,1.1,·
CN(C)CCN(C(=O)Cc1ccccc1)c1nc2cc3c(cc2s1)OCCO3,-6.0,-0.524
Cc1cc(C)c2oc(-c3ccc(N/C=c4\c(C)c(C#N)c5nc6ccccc6n5c4=O)cc3)nc2c1,-0.4,-0.808
CCN(CC)C(=O)c1ccc2c(c1)C1C3CCC(C3)C1C(c1ccccc1)N2 (stereo not drawn),0.2,·
Cc1c(C(=O)Cn2cnc3ccccc32)c2ccccc2n1C,-0.2,0.26
COc1cc(CNCCc2ccccc2)cc(OC)c1,-3.2,2.76
CC1CCC2(NC1)O[C@H]1C[C@H]3[C@@H]4CC=C5C[C@@H](O)CC[C@]5(C)[C@H]4CC[C@]3(C)[C@H]1[C@@H]2C (stereo partly drawn),-1.0,0.615
CCCCC1CCC2(C)C3=C(CCC3)CCN2C1 (stereo not drawn),-0.1,-1.02
CCc1nc2cccnc2n1-c1ccc(CC(=O)N2CCN(C)CC2)cc1,3.3,0.734
CC(C)C(O)(C(=O)OC[C@@H]1CC[N+]2([O-])CCC[C@@H]12)C(C)O (stereo partly drawn),-1.7,0.276
COc1ccc(C(C(=O)NC2CCCCC2)N(CCN2CCOCC2)C(=O)Cc2c[nH]c3ccccc23)cc1OC (stereo not drawn),0.9,0.153
O=C(Nc1ccccc1Cl)OC1CN2CCC1CC2 (stereo not drawn),·,-0.636
COCCNC(=O)C1c2ccccc2C(=O)N2CCCCC12 (stereo not drawn),1.5,-0.359
c1cc2c(cc1CN1CCNCC1)OCCO2,0.0,·
Cn1cc(C(=O)c2ccccc2)c2ccccc21,-2.9,·
Cn1cc(C(=O)OCc2ccc(C#N)cc2)c2ccccc21,-1.8,·
Cc1sc(-n2c(C)cc(C=C3C(=O)NC(=S)NC3=O)c2C)c(C#N)c1C,-2.0,-0.26
CC1(C)C(C(=O)Nc2cc(Cl)ccn2)C1(C)C,2.6,0.465
O=C(C1CCCO1)N1CCC2(CC1)OCCO2 (stereo not drawn),1.3,-0.619
CC(=O)OCc1ccc(C=C(C#N)C#N)o1,3.1,-0.448
C/C(=N/O)c1c(C)[nH]c2ccccc12,0.0,0.91
Cc1nn(Cc2ccccc2Cl)c(Cl)c1C(=O)OCC(=O)NCc1ccco1,3.1,·
CCN1C[C@]2(COC)CC[C@H](O)[C@@]34C5C[C@@H]6[C@@H](OC)C[C@@](O)(C5[C@H]6OC(C)=O)[C@@H](CC23)[C@@H]14 (stereo partly drawn),2.8,-0.168
N=C1c2ccccc2CN1NC(=O)c1ccccc1,-2.2,·
COc1ccc2c(c1)C13CCCC[C@@H]1C(C2)N(C)CC3 (stereo partly drawn),-1.8,-0.112
SMILES,BasE inh,KSHV LANA nucl
CC(C)N(CCC(C(N)=O)(c1ccccc1)c1ccccn1)C(C)C (stereo not drawn),-2.2&-1.1,-0.502&-1.1&-0.755
OC1/C(=C/c2ccccc2C(F)(F)F)N2CCC1CC2 (stereo not drawn),·,0.17
CC(C)(C)C(=O)NC1CCSC1=O (stereo not drawn),0.7,·
CN1C(=O)C2(c3ccccc31)C(C(=O)N1CCC3(CC1)OCCO3)CC1CCCN12 (stereo not drawn),3.4,-0.0455
CCN(CC)C(=O)c1ccc(NC(=O)Nc2ccccc2F)cc1,1.7,·
COc1ccc(Cc2nccc3cc(OC)c(OC)cc23)cc1OC,-3.2&-0.9,-0.0705&-0.391&-0.331
CC(=O)Nc1ccc(C=C(C#N)C#N)cc1,4.0,0.0255
COc1ccc(-n2c(C)cc(/C=C3/C(=O)NC(=O)N(Cc4ccco4)C3=O)c2C)cc1,4.9,-2.06
C=C1CC2C(CC[C@]3(C)C(=O)CCC23)[C@@]2(C)C=CC(=O)C=C12 (stereo partly drawn),·,-1.57
CNC(C)[C@@H]1CC[C@@H](N)[C@@H](OC2[C@@H](N)C[C@@H](N)[C@H](OC3OC[C@](C)(O)[C@H](NC)[C@H]3O)[C@H]2O)O1 (stereo partly drawn),2.1,-0.451&1.24
Cc1cc(OC(=O)N(C)C)nc(-c2ccc(C)c(Cl)c2)n1,·,-0.144
CCC(CC)NC1CCCCC1OC (stereo not drawn),3.3,0.152
Fc1cccc(NC2=NCCS2)c1,0.7,·
COc1cc(CN2CCN(C(=O)COc3ccccc3)CC2)cc(OC)c1OC,-4.3,·
CC(=O)N1CN(C(C)=O)CN(C(C)=O)C1,0.9,-0.175
N#CCCNCc1cccnc1,1.3,·
CC(C)c1ccc(CN2CCNCC2)cc1,1.7,·
NC(=O)c1ccc(N=Cc2c(O)n(Cc3ccco3)c(=O)[nH]c2=O)cc1,3.6,0.855
CN1CCN(P2(=O)CC=CC2)CC1,0.1,·
COc1ccc(C2N3CCCN2CC3)cc1 (stereo not drawn),4.7,·
CN(C(=O)Oc1ccccc1)c1ccc(C(O)(C(F)(F)F)C(F)(F)F)cc1,-3.0,0.429
Cn1c(O)c(/C=N/C(N)=S)c(=O)n(C)c1=O,-0.2,·
CC[C@H]1C2CC3[C@@H]4N(C)c5ccccc5[C@]45C[C@@H](C2C5O)N3[C@@H]1O (stereo partly drawn),1.1,-0.182
Nc1nonc1C1=NOC(c2nonc2N)=NO1,-2.0,1.88
NCC(CC(=O)O)c1ccc(Cl)cc1 (stereo not drawn),-2.5&-1.4,0.948&2.73&-0.455
SMILES,BasE inh,KSHV LANA nucl
COC(=O)C1=C(C)N(C)C(=O)C12c1ccccc1-c1oc(N)nc12 (stereo not drawn),2.0,0.0245
CC(Cc1ccccc1)NC=O (stereo not drawn),0.1,0.885
COC(=O)N1CCN(C(=O)Cc2ccc(Cl)c(Cl)c2)C(CN2CCCC2)C1 (stereo not drawn),·,-0.253
CN1C(=O)C(=Cc2coc3ccccc3c2=O)C(=O)N(C)C1=O,-0.7,-0.191
COc1ccc2c(c1)c(C(=O)N1CCCC1)c(C)n2Cc1ccccc1,-1.4,·
OC(CNC1CCCCCC1)C(F)(F)F (stereo not drawn),·,0.073
FC(F)(F)C1=NC(C(F)(F)F)=NP(N2CCCCC2)(N2CCCCC2)=N1,4.3,·
Cc1cccc(NC(=O)C2C(C)(C)C2(C)C)c1C,0.2,0.188
CCCCCCCCCCCCCCCCOC[C@@H](COP(=O)([O-])OCC[N+](C)(C)C)OC(C)=O,-1.3,-0.706
CS(=N)(=O)CC[C@H](N)C(=O)O (stereo partly drawn),-0.5,0.0255
CCN1CCN(Cc2ccc(C)cc2)CC1,-0.2,-0.168
CN1CCN(Cc2cc(=O)n3ccsc3n2)CC1,-1.3,2.58
COc1ccc2c(c1OC)C(=O)O[C@@H]2[C@H]1c2cc3c(cc2CCN1C)OCO3,-0.1,-0.418&-0.0615
C=C1CC2(C)C(=CC1=O)CCC1C2CCC2(C)C(OC(=O)OCC)CCC12 (stereo not drawn),1.6,·
CC(N)C(O)c1ccc(O)c(O)c1 (stereo not drawn),1.9,-0.725
COC[C@H]([C@@H](O)[C@@H](O)C(=O)NCC[C@@H](C)c1nc(/C=C/C[C@H]2OC3(C[C@H](O)[C@H]2C)OC([C@@H](C[C@@H](O)[C@@H](C)[C@@H](O)[C@@H](C)/C=C(C)/C(C)=C/C=C/C(C)=C\C#N)OC)[C@@H](OP(=O)(O)O)C3(C)C)co1)N(C)C (stereo partly drawn),-0.4,0.0775
CN1CC(C#N)C2(O)c3ccccc3CCC2C1 (stereo not drawn),2.9,0.545
CC(C)(C)NCC(O)c1cc(Cl)c(N)c(Cl)c1 (stereo not drawn),-0.2,0.154&0.764
O=c1cccc2n1CC1CC2CN(c2ccc3nnc(-c4ccccc4)n3n2)C1 (stereo not drawn),-0.2,-1.21
c1ccc(CSc2nnc(-c3ccccc3)o2)cc1,2.7,·
COc1ccc(CN2CCNCC2)cc1,1.5,0.555
CC1=CCCC2C1(C)CCC(C)C2(C)CC/C(C)=C/C[n+]1cn(C)c2c(N)ncnc21 (stereo not drawn),-2.1,0.392
CC1=C2[C@H]3OC(=O)[C@@H](C)[C@@H]3CC[C@@]2(C)C=CC1=O,-1.9,-0.141
O=S(=O)(c1ccc(NC2CN3CCC2CC3)nc1)N1CCCC1 (stereo not drawn),3.9,·
CC12CN3CC(C)(C1=O)C(=O)C(C)(C3)C2=O,0.5,·

# One compound at a time, as listed above.
# CC(Cc1ccccc1)NC=O (stereo not drawn) is listed as BasE inh = 0.1; KSHV LANA nucl = 0.885
# COC[C@H]([C@@H](O)[C@@H](O)C(=O)NCC[C@@H](C)c1nc(/C=C/C[C@H]2OC3(C[C@H](O)[C@H]2C)OC([C@@H](C[C@@H](O)[C@@H](C)[C@@H](O)[C@@H](C)/C=C(C)/C(C)=C/C=C/C(C)=C\C#N)OC)[C@@H](OP(=O)(O)O)C3(C)C)co1)N(C)C (stereo partly drawn) is listed as BasE inh = -0.4; KSHV LANA nucl = 0.0775
# CN1CCN(Cc2cc(=O)n3ccsc3n2)CC1 is listed as BasE inh = -1.3; KSHV LANA nucl = 2.58

# (listing goes on)
SMILES,BasE inh,KSHV LANA nucl
C[C@H]1CCC/C=C/C2C[C@H](O)C[C@H]2[C@H](O)/C=C/C(=O)O1 (stereo partly drawn),-0.6,-0.273
C[n+]1ccc(-c2cc[n+](C)cc2)cc1,2.1,·
N=C1c2ccccc2CN1c1ccc(Br)cc1,-0.6,·
CN(C)C(=O)Oc1ccc(Br)cc1C(=O)Nc1ccc(F)cc1F,·,0.013
CCOC(=O)C1C(=O)N(C)C2(C)CC1c1ccccc1O2 (stereo not drawn),1.2,-0.119
NC1=NC(=O)C(c2ccccc2)O1 (stereo not drawn),·,0.108
CNC(=O)O/N=C1\CC(C)(C)Cc2csc(SC)c21,-3.0,-0.0655
Cc1ccnc(NS(=O)(=O)c2ccc(N=Cc3c(O)n(C)c(=O)n(C)c3=O)cc2)n1,-2.1,-0.71
Nc1c(C(=O)NCC2CCCO2)c2nc3ccccc3nc2n1Cc1ccco1 (stereo not drawn),2.8,·
c1cc(C2CCNCC2)ccn1,-0.5,1.43
C#CC[N+]12CN3CN(CN(C3)C1)C2,0.3,0.629
CN1C2C=C(N(C(=O)c3ccc(Cl)cc3)c3ccccc3)CC1CC2 (stereo not drawn),0.7,·
O=C1NC(=S)NC(=O)C1=Cc1ccncc1,1.2,2.68
CCN1CCC(N2CCCCC2)CC1,0.8,-0.472
N#CC(C#N)=Cc1ccc(OC(F)F)cc1,-0.7,·
Cc1cccc(NC2=NCC(C)S2)c1C (stereo not drawn),-1.2,·
CN1CCCC(C(=O)c2ccccc2)C1 (stereo not drawn),0.5,-0.542
N#CCCn1cc(C=C2C(=O)NC(=O)NC2=O)c(-c2ccccc2)n1,1.0,·

# Not all compounds are listed, so the mix of outcomes need not match the whole.
